AID504770 = E. coli YBA685 growth inhibition, screen for V. cholerae RctB inhibitors. E. coli YBA685 rctB-dependent plasmid, OD600 growth, 3 h; stronger effect = lower value. z-score (test concentration not listed). 130,000 compounds, 0.27% hits. AID 504770;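 active = z-score under -2 on both plates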;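 note: wells of about 30 µL received 100 nL stock; score is relative to mean and SD of the test wells; the first replicate is given; strong numbers were not always called active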
Ba CapD inh = inhibitors of Bacillus anthracis CapD enzyme; purified CapD enzyme, fluorescence intensity read-out; stronger effect = lower value; some hits fall short of the stated cut; z-score (test concentration not listed); 140,000 compounds, 0.23% hits; AID 492967;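 active = z-score under -4 in either of two replicates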;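 note: stock transfer was 100 nL into about 40 µL; score is relative to mean and spread of the plate; one replicate is shown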
* = called active by the depositor; i = inactive; x = not tested or not shown; & = joins results of further samples.

SMILES	AID504770	Ba CapD inh
On1c(-c2ccc(Cl)cc2Cl)nc2ncccc21	-0.5	0.56
Cc1cc(N2CCCC2)n2nc(C)c(-c3ccccc3)c2n1	1.2	0.3
Cc1ccccc1NC(=O)C(C)(C)N(Cc1ccco1)C(=O)C(C)Oc1cc(Cl)c(Cl)cc1Cl (configuration not stated)	x	2.3
Cc1noc(-c2ccc(C(F)(F)F)cc2)c1C(=O)NNC(=O)c1ccc(CSc2ccccn2)o1	x	-0.85
CC1CC(=O)c2cnc(N3CCc4ccccc43)nc2C1 (configuration not stated)	-0.25	-0.53
Cc1ccc(N2C(=O)CC(=O)N(c3ccc(C)cc3C)C2=O)c(C)c1	-0.3	0.15
C[N+]1(CC2COC(C3CC=CCC3)O2)CCCC1 (configuration not stated)	-0.6	0.86
Clc1cccc2c(N3CCCCCC3)cnnc12	-0.6	-0.73
O=C1N=C(c2ccccc2)S/C1=C\c1ccc2c(c1)OCO2	-1.1	0.21
CCCNC(=O)OCC12CC3CC(CC(C3)C1)C2	-0.15	x
CCn1c(SCC(=O)/C(C#N)=C2\Sc3ccccc3N2C)nc2ccccc21	0.15	x
Cc1ccccc1S(=O)(=O)Cc1ccc(C(=O)N2CCN(Cc3ccccc3)CC2)o1	-1.6	-0.32
O=C(CCCN1C(=O)CCC1=O)Nc1cccc2c1CCCC2	-1.1	-0.21
c1csc(-c2nn[nH]n2)c1	0.3	x
CC(CN1C(=O)C2C3C=CC(C2C1=O)C1C2C(=O)N(CC(C)c4ccccc4)C(=O)C2C31)c1ccccc1 (configuration not stated)	x	-0.075
CCCn1c2ccccc2c2cnn(CC(=O)NCCN(C)C3CCCCC3)c(=O)c21	0.45	59
CCCCn1c(=O)c2ccccc2n2c(=S)sc(-c3ccccc3)c12	-0.35	0.36
OCCN(CCO)Cc1ccccc1	-0.3	-0.41
N#Cc1c(N)nc(SCC(=O)c2ccc(F)cc2)c(C#N)c1-c1ccc(O)cc1	x	0.65
Cc1cccc(CCNC(=O)C2CCN(S(=O)(=O)c3cccc4cccnc34)CC2)c1	0.6	-0.21
Cc1cccn2c(=O)c3cc(C(=O)NC4CCSC4=O)sc3nc12 (configuration not stated)	2.7	0.14
Cc1cc2cc3c(C)cc(=O)oc3c(C)c2o1	0.05	-0.46&110
O=C(NC1CCCC1)c1ccccc1OCc1ccccc1	-0.1	-0.2
O=C(Nc1nccs1)c1cc2c(=O)n3ccccc3nc2s1	1	x
COC(=O)c1ccc(NC(C)C)c([N+](=O)[O-])c1	x	-0.33
Cc1c(C(=O)N2CCC(C(N)=O)(N3CCCCC3)CC2)sc2ncn(CC(=O)N3CCC(C)CC3)c(=O)c12	x	-0.07
CCOC(=O)c1sc(SCC)c2c1CC(C)(C)CC2=O	x	-0.33
CCOC(=O)C1=C(N)OC2=C(C(=O)CC(C)(C)C2)C1c1cc([N+](=O)[O-])c(C)s1 (configuration not stated)	x	-0.71
Cc1noc(C)c1CSc1nc2ccccc2c(=O)n1Cc1ccccc1Cl	-0.2	x
CC(C)(C)N/N=C/c1cccc(OC(F)F)c1	-0.35	x
CN(C)S(=O)(=O)c1ccc(C(=O)NC2CCCc3ccccc32)cc1 (configuration not stated)	0.3	0.82
O=C(O)C1C2C=CC(C2)C1C(=O)N1CCN(C/C=C/c2ccccc2)CC1 (configuration not stated)	-0.6	-0.06
CC(=O)Nc1no[n+]([O-])c1C(N)=O	1.1	-0.51
O=S(=O)(c1cccc2nonc12)N1CCCCCC1	x	-0.13
CCn1c2ccccc2c2cc(/C=N/NC(=O)c3ccc(S(N)(=O)=O)cc3)ccc21	x	2.3
O=C1/C(=C/c2ccccc2)COc2ccccc21	0.3	-0.69
OCCNc1nc2nonc2nc1NCCO	-0.5	x
O=C(CCc1nnc2ccc(NCc3ccccc3)nn12)NC1CCCC1	1.2	2.5
Cn1cnnc1SC1CCCCC1NS(=O)(=O)c1ccc(Cl)cc1 (configuration not stated)	-0.7	x
CCN1CCCC1CNC(C)C(=O)Nc1ccc(Oc2ccccc2)cc1 (configuration not stated)	-0.2	x
CCOC(=O)C(C#N)c1nc2ccccc2nc1N(CC)CC (configuration not stated)	-1.1	x
Cc1ccc(-n2ncc3c(NCc4cccs4)ncnc32)c(C)c1	1.9	-0.29
CCc1ccc(N2C(=O)N(CC(=O)N(CC)CC)c3ccccc3S2(=O)=O)cc1	0.05	0.02
CCC(=O)Nc1ccc(C(=O)N2CCN(c3ccccc3)CC2)cc1	-0.65	-0.03
Cc1cccc(NC(=O)/C(=C\c2ccc3c(c2)OCO3)NC(=O)c2ccccc2Br)c1	x	1.9
O=C(COc1ccccc1)Nc1ccc2c(c1)nc1n2CCN(Cc2ccccc2)C1	0.3	8
Cc1cc2ncn(S(C)(=O)=O)c2cc1C	1.8	0.35
CN(C)CCCO[C@H]1[C@@H](C(O)CO)OC2OC(C)(C)O[C@H]21 (some centres not stated)	x	-0.3
CC(C)CC(NCc1ccccc1O)C(=O)O (configuration not stated)	1.3	0.45
N#CCSc1nnc(Cc2cccs2)n1C1CCCCC1	-0.5	x
CCN(CC)[P+](NC(=O)c1ccccc1)(c1ccccc1)N(CC)CC	0.6	0.13
Cn1c(Sc2cnccn2)nnc1-c1ccc(F)cc1	0.15	x
CCOC(=O)N1CCC(NC(=O)Cn2cccc2C(=O)c2ccccc2)CC1	0.35	-0.65
O=C(CN1C(=O)/C(=C\c2cccs2)SC1=S)N1CCN(c2ccccc2)CC1	0	-0.4
CCC(C)C(NC(=O)c1cccc(Cl)c1)C(=O)OC (configuration not stated)	0	x
O=C(O)CCN1C(=O)C2C3C=CC(C3)C2C1=O (configuration not stated)	0.25	0.24
CN(C)c1ccc(C2NC(=O)c3c(sc4c3CCCC4)N2)cc1 (configuration not stated)	x	7.9
c1ccc(Cn2c3ccccc3c3nc4ccccc4nc32)cc1	x	7.2
Cc1cc(NC(=O)c2ccc(C(F)(F)F)cc2)no1	0.6	0.71
CC1=C(C(=O)OC(C)C)C2(C(=O)Nc3ccccc32)C(C#N)=C(N)O1 (configuration not stated)	x	0.15
Additional results follow:
SMILES	AID504770	Ba CapD inh
COC(=O)CN(C)c1nnc(N)s1	-0.75	-0.83
CCCCN1CN=C(Nc2nc3ccccc3o2)NC1	-0.6	-0.41
CC(C)c1cc(C(=O)Nc2ccc3c(c2)OCCCO3)c2cnn(C(C)C)c2n1	-0.1	x
COc1ccc(Oc2ncccc2NS(=O)(=O)c2ccc(OC)cc2)cc1	x	0.41
Cc1cc(C(N)=O)c(C)n1-c1ccc(Br)cc1	0.35	-0.21
COc1ccccc1N1CCN(Cc2ccccc2Cl)CC1	x	0.61
Cc1ccc(OCCn2c(SCCO)nc3c(N)ncnc32)cc1	-0.75	-0.32
Cc1cc2oc(=O)cc(CSc3nnc(-c4ccco4)n3CC(C)C)c2cc1Cl	0.2	x
CN1C(=O)/C(=C2\SC(=S)N(C(CC(=O)O)C(=O)O)C2=O)c2ccccc21 (configuration not stated)	-0.65	x
c1ccc2[nH]c(CN3CCN(c4ncnc5sc6c(c45)CCCC6)CC3)nc2c1	x	3.5
CCOC(=O)c1c(NC(=S)NCc2cc(C)n(C)n2)sc2c1CCCC2	-0.8	0.21
CCNc1c(NC(=O)Cc2ccccc2)c(=O)oc2ccccc12	-0.5	-0.26
CCCC(Nc1cccc(Br)c1)N1C(=O)CCC1=O (configuration not stated)	-0.45	0.41
O=C1NCCN/C1=C\C(=O)c1ccccc1	-0.95	-2.7
Cc1cccc(NC(=O)C2CCC2)c1C(=O)O	-0.05	0.41
O=C(NCCc1ccccc1)C(F)(F)C(F)F	0.65	1.2
O=C1c2ccccc2C(=O)n2ccnc21	-0.95	0.51
CCC(C)n1c(=S)[nH]c2ccccc2c1=O (configuration not stated)	0.15	x
CC(C(=O)O)N1C(=O)/C(=C\c2ccc(Br)cc2)SC1=S (configuration not stated)	-0.25	-1
N#CCCN1CCN(C2=NC(=O)/C(=C\c3ccc(Cl)cc3)S2)CC1	x	-0.36
CCOC(=O)c1cc2c(=O)[nH]c(C(F)(F)F)nc2o1	-1.2	x
Cc1nc2nc(-c3ccc(Cl)cc3)[nH]n2c(=O)c1C	-0.25	1.2
CCOC(=O)n1c(=O)n(Cc2c(Cl)cccc2Cl)c2ccccc21	x	-0.085
COc1cc(-c2cc(C(F)(F)F)n3ncc(C(=O)Nc4ccc(C(C)=O)cc4)c3n2)cc(OC)c1OC	x	-0.77
CCOC(=O)c1c(C)n(C)c2cc(Br)c(C)cc12	0	0.59
Cc1ccc(-c2cccc(=O)o2)cc1	-1	-4*
COc1ccc(Br)cc1/C=C1N=C(/C=C/c2ccccc2OC)OC\1=O	x	-0.33
Cc1cc(C(=O)NC(C)C(C)(C)C)cs1 (configuration not stated)	0.5	0.005
CN1C(=O)C(O)(CC(=O)c2cccnc2)c2ccccc21 (configuration not stated)	-0.4	-0.35
CCOC(=O)C1=C(O)/C(=C/c2ccc(N(C)C)cc2)SC1=Nc1ccccc1	x	-1.5
O=C(NCCc1ccc(F)cc1)OCCN1CCN(Cc2cc3ccccc3o2)CC1	x	0.21
Cc1cccc(NC(=S)Nc2ccccn2)c1	1.4	-0.23
CCC(C)N1C(=O)N(c2ccc(Cl)c(Cl)c2)C(n2oc(=O)n(-c3ccc(Cl)c(Cl)c3)c2=O)C1(C)C (configuration not stated)	x	-0.1
Cc1cc(NC(=O)CSc2nnc3cc(C)c4ccccc4n23)no1	x	0.02
O=C(c1ccc(Cn2cc(Br)cn2)o1)n1cccn1	0.9	-0.28
N#Cc1c2ccc(OCc3ccc(Br)cc3)cc2n2ccccc12	x	-0.24
CCCCNc1nc(SCC(=O)NC(C)CC)nc2ccccc12 (configuration not stated)	x	-0.03
N#CC1(NC(=O)CN2CCN(c3ccc(C(F)(F)F)cn3)CC2)CCCC1	0.75	x
CC(C)[C@H](NC(=O)c1ccco1)C(=O)Nc1ccc(OC(F)F)cc1	-0.1	x
O=C(OCc1cccc(Br)c1)C1=COCCO1	0.05	x
O=C(CN1C(=O)c2cccnc2Oc2ccccc21)NCCc1ccccc1	0.55	0.43
CN1CCCC(OC(=O)c2cncc(Br)c2)C1 (configuration not stated)	-0.4	-0.15
Cc1cc(C(=O)Oc2cc(C)c(Cl)c(C)c2)no1	-0.8	0.09
CCS(=O)(=O)c1ccc2oc(SCC(=O)Nc3ccc4c(c3)OCCO4)nc2c1	1.8	x
COC(CNC(=O)c1cc(-c2ccccc2)nc2ccccc12)OC	1.8	16

17 entries already listed, arranged by count of non-hydrogen atoms, high to low.
SMILES	AID504770	Ba CapD inh
O=C(COc1ccccc1)Nc1ccc2c(c1)nc1n2CCN(Cc2ccccc2)C1	0.3	8
CC(C)c1cc(C(=O)Nc2ccc3c(c2)OCCCO3)c2cnn(C(C)C)c2n1	-0.1	x
CCn1c(SCC(=O)/C(C#N)=C2\Sc3ccccc3N2C)nc2ccccc21	0.15	x
COc1ccc(Oc2ncccc2NS(=O)(=O)c2ccc(OC)cc2)cc1	x	0.41
CN1C(=O)/C(=C2\SC(=S)N(C(CC(=O)O)C(=O)O)C2=O)c2ccccc21 (configuration not stated)	-0.65	x
CCCCn1c(=O)c2ccccc2n2c(=S)sc(-c3ccccc3)c12	-0.35	0.36
c1ccc(Cn2c3ccccc3c3nc4ccccc4nc32)cc1	x	7.2
O=C(CCCN1C(=O)CCC1=O)Nc1cccc2c1CCCC2	-1.1	-0.21
O=C(Nc1nccs1)c1cc2c(=O)n3ccccc3nc2s1	1	x
CC1CC(=O)c2cnc(N3CCc4ccccc43)nc2C1 (configuration not stated)	-0.25	-0.53
CC(C(=O)O)N1C(=O)/C(=C\c2ccc(Br)cc2)SC1=S (configuration not stated)	-0.25	-1
CCC(C)C(NC(=O)c1cccc(Cl)c1)C(=O)OC (configuration not stated)	0	x
Clc1cccc2c(N3CCCCCC3)cnnc12	-0.6	-0.73
CN1CCCC(OC(=O)c2cncc(Br)c2)C1 (configuration not stated)	-0.4	-0.15
CCC(C)n1c(=S)[nH]c2ccccc2c1=O (configuration not stated)	0.15	x
O=C1c2ccccc2C(=O)n2ccnc21	-0.95	0.51
CC(=O)Nc1no[n+]([O-])c1C(N)=O	1.1	-0.51

(next part)
SMILES	AID504770	Ba CapD inh
O=c1c2ccccc2nc(-c2ccccc2)n1CCCn1ccnc1	1	x
C=CCn1c(CSCc2ccc(F)cc2)n[nH]c1=S	1.5	-0.39
COc1cccc(NC(=O)c2ccc3nsnc3c2)c1	-1	-0.73
CC(C)c1ccc(NC(=O)CSc2nccn2C)cc1	1.2	0.12
Cc1c(C(=O)CC#N)c2ccccn2c1CCC#N	0.75	0.64
Cn1nc(C(F)(F)F)c(C#N)c1N1CCN(c2ccccc2F)CC1	x	-0.34
COc1cccc(-c2nc3ccccc3c(=O)n2NC(=O)/C=C/c2ccc(Br)cc2)c1	x	-0.34
CCOc1ccc(NC(=S)NC(Cc2ccccc2)c2ccccc2)cc1 (configuration not stated)	0.5	1
Cc1cccc(C)c1Nc1scc(C)[n+]1C	0.25	0.59
CS(=O)(=O)c1ccc(NC(=O)c2ccc3c(c2)OCO3)cc1	-0.75	x
COc1ccc2c(c1)c(=O)c1ccccc1n2CC(=O)Nc1cccc(Cl)c1	x	-1.1
CC(C)(C)C(=O)N1CCCC1C(=O)O (configuration not stated)	-0.8	-0.64
OC(CNCCc1ccccc1)c1ccccc1 (configuration not stated)	-0.2	0.65
Cc1csc(SCC(=O)NC(=O)C2CCCCC2)n1	0.05	x
CSc1ccc(/C=C2\N=C(c3ccccc3)OC2=O)cc1	x	-0.45
CCN(CC)S(=O)(=O)c1cccc(C(=O)Nc2cccc(F)c2)c1	-1.4	i
O=C(Cc1ccc(-n2cccc2)cc1)NCc1cccs1	0	x
c1ccc(C2CCCC(c3ccccc3)S2)cc1 (configuration not stated)	0	-0.51
Cc1nnc(SCc2nc(-c3ccsc3)no2)n1C1CC1	0.4	x
CC12CC3(C)CC(C)(C1)CC(C(=O)NCCc1ccc(S(N)(=O)=O)cc1)(C2)C3	1.9	0.15

Source: PubChem (ICCB-Longwood Screening Facility, Harvard Medical School)
